Bioassay records: PubChem BioAssay, National Center for Advancing Translational Sciences (NCATS)
HSD17B inhib: blocks hydroxysteroid 17-beta dehydrogenase activity | AID 893 | Potency, µM (top dose mostly 57.1 µM), for the others: at the top dose activity change, negative = inhibition, usual class: inhibitors | hit rate 7.6% among 75,000 | Q99714 | recombinant HSD17B10, NADH fluorescence kinetic; many of its hits are not listed in these tables; active means well fitted inhibition curve with a large enough effect; inconclusive means small, poorly fitted or top-dose-only effect; inactive means no such curve, though single readings can be large or run the other way;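 further: the protocol describes HADH2 (HSD17B10) and not the HSD17B4 of the title; nearly all actives have a fitted effect of over 70% in size; most hits overshoot -100% by far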
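Enzyme plus compound, 15 min room temperature; substrate mix added (NAD+ 1 mM, beta-hydroxybutyryl-CoA 90 uM final); plates read kinetically for NADH fluorescence. HADH2 was His-tagged, E. coli-derived, 20 nM.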
Numbers without * were called inactive; ? = inconclusive; & = joins results of further samples; [ ] = dose if it differs, or a comment. On the % scale 0 is the no-effect control and ±100 the full control effect; potency means the concentration at half of the fitted maximal effect. A portion of the library; rates above refer to the full screens.

| canonical_smiles | HSD17B inhib |
| --- | --- |
| Cc1ccc(NC(=O)Cn2cccc2)cc1C | 12% |
| CCN1C(=O)C(O)(CC(=O)c2cc(C)ccc2C)c2ccccc21 (stereo unspecified) | -4% |
| O=C(c1ccncc1)N(Cc1ccco1)Cc1cc2ccccc2[nH]c1=O | ? |
| COc1ccc(NS(=O)(=O)c2cc(-c3nnnn3C)ccc2OC)cc1 | -9% |
| O=C(CN1CCOCCOCCN(CC(=O)Nc2ccccc2)CCOCC1)Nc1ccccc1 | 8% |
| CC(C)(C)n1ncc2c(=O)n(CC(=O)NCc3ccccc3)cnc21 | -3% |
| C=CCn1c2ccccc2c2nnc(SCCCn3c(=O)[nH]c4ccccc43)nc21 | -12% |
| O=C(Nc1ccc2c(c1)OCO2)c1ccc(CN2CCOCC2)cc1 | -3% |
| O=C(NCCc1ccccc1)C1CCN(c2nc3ccccc3o2)CC1 | 1% |
| CCC(Sc1nc(C)cc(=O)[nH]1)C(=O)Nc1ccc(Cl)cn1 (stereo unspecified) | 3% |
| Nc1ncnc2c1nc(Br)n2[C@@H]1O[C@H]2COP(=O)(O)O[C@@H]2[C@H]1O | -4% |
| O=C(CSc1nnc2ccccn12)NC(=O)NC1CCCCC1 | 1% |
| Nc1ncnc2c1ncn2[C@H]1O[C@@H](C(=O)OCCO)[C@@H](O)[C@H]1O | 2%[11.4 µM] |
| COc1ccccc1CNc1ccnc(-c2ccoc2)n1 | ? |
| O=C(COc1ccccc1)Nc1nc2ccccc2[nH]1 | 7% |
| Cc1nc2c3c4c(sc3n3c(SCC(=O)NCc5ccco5)nnc3n2n1)COC(C)(C)C4 | 5% |
| COC(=O)C(C)NS(=O)(=O)c1ccc(NC(C)=O)cc1 (stereo unspecified) | 1% |
| Cc1nc(NC(=O)c2ccccc2)sc1-c1csc(N)n1 | 1% |
| CCOC(=O)CCN1C(=O)[C@H]2[C@H]3[C@H](O)[C@H](O)C/C(=N/O[C@@H]4O[C@@H](COC(C)=O)[C@@H](OC(C)=O)[C@@H](OC(C)=O)[C@H]4OC(C)=O)[C@H]3CC[C@@H]2C1=O | 1%[11.4 µM] |
| CC(C)(C)C1CCC(=O)C(C2(O)C(=O)Nc3ccccc32)C1 (stereo unspecified) | 6% |
| CCOC(=O)C1=C(C)NC(=O)NC1c1ccc(OC(=O)c2ccco2)c(OC)c1 (stereo unspecified) | 1% |
| CN(Cc1ccco1)c1ncnc2ccc(-c3cccc(C#N)c3)cc12 | ? |
| COC(=O)c1coc(-c2ccc(C)cc2)c1C(=O)OC | 5% |
| CCOC(=O)OCC1OC(c2ccccc2)C=CC1Oc1ccc(F)cc1C (stereo unspecified) | -6%[11.4 µM] |
| CC(=O)c1cccc(NC(=O)c2ccc(NS(=O)(=O)c3c(C)noc3C)cc2)c1 | 7% |
| COCCCn1c(-c2ccccc2Cl)n[nH]c1=S | -3% |
| O=C(OCCN(C1=NS(=O)(=O)c2ccccc21)c1ccc(Cl)cc1)c1ccco1 | ? |
| Cn1cccc1C(=O)N1CCC2(CCN(Cc3nccs3)CC2)CC1 | 3% |
| O=C(CCN1C(=O)c2ccccc2C1=O)N1CCN(c2ccccn2)CC1 | 137%[activator] |
| CCOC(=O)N1CCN(C(=O)NC23CC4CC(CC(C4)C2)C3)CC1 | 3% |
| CCC(=O)Nc1ccc(NC(=O)c2ccco2)c(OC)c1 | -3% |
| CC(C)(C)n1ncc2c(=O)n(CC(=O)OCc3ccccc3)cnc21 | 2% |
| COc1ccc(OC)c(C2CC(=O)N3CN(c4ccc(C)c(Cl)c4)CSC3=C2C#N)c1 (stereo unspecified) | ? |
| N#Cc1ccc(-c2ccco2)nc1SCc1ccccc1 | -4% |
| Cc1nc(NC2=NCN(Cc3cccnc3)CN2)nc2ccccc12 | -3% |
| CCCCCn1c(CN2CCN(Cc3ccccc3)CC2)nc2c1c(=O)[nH]c(=O)n2C | 2% |
| O=C(c1ccco1)N1CCCC(c2nc(-c3ccc(S(=O)(=O)NCc4ccccc4)cc3)no2)C1 (stereo unspecified) | -8% |
| Cc1noc(COc2ccccc2OCC(N)=O)c1Cl | 10% |
| CC1(c2ccccc2)NC(=O)N(CC(=O)N2CCOCC2)C1=O (stereo unspecified) | 11% |
| CC12CN(C(=O)c3ccco3)CC(c3ccccc3)(CN(C(=O)c3ccco3)C1)C2=O | 15% |
| Cc1ccccc1-n1c(=O)cc(N2CCCCCC2)[nH]c1=O | 9% |
| COC(=O)c1cn(C)c2ccc(S(=O)(=O)N3CC(C)CC(C)C3)cc2c1=O (stereo unspecified) | 7% |
| CCOC(=O)N1CCN(S(=O)(=O)c2ccc(C(=O)Nc3ccc(F)cc3F)cc2)CC1 | 82%[activator] |
| COCCn1c(C)cc(C(=O)COC(=O)c2ccc3ncsc3c2)c1C | -11% |
| O=C(c1ccc(C(=O)N2CCOCC2)nc1)N1CCOCC1 | 9% |
| CC1Cc2ccccc2N1C(=O)CN1C(=O)CN(C)C(=O)c2ccccc21 (stereo unspecified) | 4% |
| Cn1c(Cl)cnc1C(O)c1ccccc1 (stereo unspecified) | 0% |
| CCOC(=O)c1cc2occc2n1CCCN1C(=O)c2ccccc2C1=O | -17% |

Gathered by group: the entries above containing a tert-butyl group
| canonical_smiles | HSD17B inhib |
| --- | --- |
| CC(C)(C)n1ncc2c(=O)n(CC(=O)NCc3ccccc3)cnc21 | -3% |
| CC(C)(C)C1CCC(=O)C(C2(O)C(=O)Nc3ccccc32)C1 (stereo unspecified) | 6% |
| CC(C)(C)n1ncc2c(=O)n(CC(=O)OCc3ccccc3)cnc21 | 2% |

Going on with the list:
| canonical_smiles | HSD17B inhib |
| --- | --- |
| Cc1cc(C)n2c(SCC(=O)N3CCN(S(=O)(=O)c4ccc(Cl)cc4)CC3)nnc2n1 | -21% |
| COCC(=O)Nc1nnc(SCC(=O)NCc2cccs2)s1 | 14% |
| C=CCc1ccccc1OCC(O)CN1CCN(Cc2ccc3c(c2)OCO3)CC1 (stereo unspecified) | 2% |
| Cc1ccccc1OCc1nc(-c2ccccc2)no1 | 3% |
| O=C(Cn1nc(Cc2cccnc2)c2ccccc2c1=O)Nc1ccc2c(c1)OCO2 | -2% |
| CC(=O)Nc1nc(-c2cccs2)cs1 | -7% |
| O=C(NCCc1ccc(Cl)cc1)C1CCN(C(=O)c2sccc2-n2cccc2)CC1 | -2% |
| Cn1c(=O)oc2cc(S(=O)(=O)N3CCCC(C(=O)NCC4COc5ccccc5O4)C3)ccc21 (stereo unspecified) | -1% |

3 entries already listed, ordered by heavy-atom count, rising:
| canonical_smiles | HSD17B inhib |
| --- | --- |
| CC(=O)Nc1nc(-c2cccs2)cs1 | -7% |
| O=C(NCCc1ccc(Cl)cc1)C1CCN(C(=O)c2sccc2-n2cccc2)CC1 | -2% |
| Cc1cc(C)n2c(SCC(=O)N3CCN(S(=O)(=O)c4ccc(Cl)cc4)CC3)nnc2n1 | -21% |

The list goes on.
| canonical_smiles | HSD17B inhib |
| --- | --- |
| O=C(NCCCn1ccnc1)c1cn(-c2ccccc2)nc1-c1ccc(F)cc1 | -2% |
| CC1=C2C(=O)OC(c3ccoc3)C2(C)CCC1 (stereo unspecified) | 0% |
| O=C(CN1C(=O)COc2ccccc21)NCCN1CCc2ccccc2C1 | 0% |
| O=C(CCN1C(=O)c2ccccc2C1=O)N1CCN(Cc2ccc(Cl)cc2Cl)CC1 | 2% |
| CCCN(CCC)CCCNS(=O)(=O)c1cc(Br)cc2c1N(C(C)=O)CC2 | 13% |
| Cc1ccc(-n2c(=O)[nH]cc(C(=O)Nc3ccc4c(c3)OCO4)c2=O)cc1C | -1% |
| CC[C@H](C)[C@H](NS(=O)(=O)c1ccc(C)cc1)C(=O)N1CCC(C(=O)N[C@@H](C)C(=O)O)CC1 | -1% |
| CCN(CC)S(=O)(=O)c1cccc(-c2nc3n(n2)Cc2ccccc2-3)c1 | 1% |
| COc1ccc(NC(=O)CSc2nc(-c3ccncc3)nn2CC(=O)N2CCCC2)cc1 | 9% |
| Cc1ccccc1NC(=O)Cc1nc(CSc2nnc(C3CCCCC3)n2N)cs1 | -15% |
| O=S(=O)(Cc1ccccc1)N1CCn2c(nc3ccccc32)C1 | -4% |
| COc1cc(C2N3CC4(C)CN2CC(C)(C3)C4)ccc1O (stereo unspecified) | 6% |
| O=c1cnc2cnc(N3CCOCC3)nc2n1Cc1cccs1 | ? |
| CCC(=O)N/C=C/n1cnc2cc(C(F)(F)F)ccc21 | 12% |
| CCOC(=O)c1nnn(CC(=O)Nc2cc(Cl)ccc2C)c1C(=O)OCC | 4% |
| CCC1(C)Cc2c(sc3c2c2ncnn2c2nnc(SCC(=O)NCc4ccco4)n32)CO1 (stereo unspecified) | -5% |
| Cc1cc(C)c(NC2=CC(=O)CC(C)(C)C2)c(C#N)c1 | -10% |
| COCCCn1nnnc1SCC(=O)Nc1nc(C)c(C)s1 | -6% |
| O=C(CSc1nnc(C2COc3ccccc3O2)o1)N1CCOCC1 (stereo unspecified) | 9% |
| O=C(CSCc1ccccc1)Nc1ccc2c(c1)OCO2 | -10% |
| Cn1c(SCC(=O)N(C2CCCCC2)C2CCCCC2)nnc1-c1cccs1 | 5% |
| Cc1c(N(C(=O)Nc2ccccc2)C2=NCC(C)S2)c(=O)n(-c2ccccc2)n1C (stereo unspecified) | 2% |
| CC(C)(C)NC[C@H](O)COc1cccc2[nH]c(=O)[nH]c12 | -9%&2% |
| O=C1OCCC=C1[C@@H](O)CCc1ccccc1 | 4%[11.4 µM] |
| COC(=O)c1ccc(C2CC(=O)Nc3cc(OC)c(OC)cc32)cc1 (stereo unspecified) | 12% |
| COc1ccccc1C1C(C(=O)c2cc3ccccc3o2)=C(O)C(=O)N1CCN(C)C (stereo unspecified) | ? |
| Cn1c(=O)n(CCc2ccccc2)c(=O)c2c1nc1n2CCN1Cc1ccco1 | 2% |
| CC(=O)N(c1ccc2oc(=O)sc2c1)S(=O)(=O)c1ccccc1 | 16µM* |
| CCOc1ccc(-c2ncncc2-c2ccc(OC)cc2)c(O)c1 | 9% |
| CCCn1nnnc1SCC(=O)NCc1cccs1 | 12% |
| COC(=O)[C@@H]1C[C@H]1[C@@H](NC(=O)Oc1ccc(F)cc1)c1ccccc1 | 10% |
| COc1ccc(C(CNC(=O)c2ccc(-n3cnnn3)cc2)N2CCOCC2)cc1 (stereo unspecified) | 8% |
| Cc1cc(C)c2c(N)c(C(=O)N3CCCCCC3)sc2n1 | ? |
| COCC(C)NC(=O)c1noc2c1CCc1cc(OC)ccc1-2 (stereo unspecified) | ? |
| COC(=O)c1cc(OC)c(OC)c(OC)c1N | -16% |
| Cn1nnnc1SCC(=O)Nc1nc(-c2ccccc2)c(-c2ccccc2)o1 | 18% |
| CCOCC(=O)Nc1nc2ccc(C)cc2s1 | 1% |
| O=C(Nc1ccc(NC(=O)c2ccco2)nc1)c1ccccn1 | -21% |
| COc1ccc(Nc2nc(N)nc(CSc3n[nH]c(-c4ccccc4)n3)n2)cc1 | -5% |
| COc1ccc(-n2c(=O)cc(N3CCN(c4ccccc4F)CC3)[nH]c2=O)cc1 | -10% |
| CC(=O)n1nc(-c2cccnc2)nc1N | 0% |
| CCN(CC)S(=O)(=O)N1CCC(C(=O)NC2CCCc3ccccc32)CC1 (stereo unspecified) | 13% |
| COc1ccc(S(=O)(=O)Nc2cc(OC)c(NC(=O)c3ccco3)cc2OC)cc1 | ? |
| O=C(Nc1ccc2c(c1)OCCO2)c1c(F)cccc1F | 11% |
| FC(F)(F)c1nc(SCc2ccc(Cl)cc2)n[nH]1 | 4%[11.4 µM] |
| COC(=O)C1CCN(C(=O)NC2CCCCC2)CC1 | 6% |
| O=C(CN1C(=O)c2ccccc2S1(=O)=O)N1CCN(c2ccccc2F)CC1 | 11% |
| COC(=O)CSc1nc2c(c(=O)n(C)c(=O)n2C)n1CCCc1ccccc1 | -2% |
| O=C(COc1cc(Cl)ccc1Cl)Nc1nnc(CC(=O)N2CCOCC2)s1 | -5% |
| CCn1c(SCC(=O)N2CCN(c3ccc(F)cc3)CC2)nnc1-c1ccncc1 | 9% |
| COC(=O)[C@@]1(Cc2ccccc2)[C@H]2c3cc(C(=O)N(C)C)n(CCO)c3C[C@H]2CN1C(=O)c1ccccc1 | 8% |
| COc1cc(OC)nc(NC(=O)COC(=O)C2CCCCC2)n1 | 0% |
| CCOC(=O)C1=C(C)NC(=O)NC1/C(C)=C/c1ccccc1 (stereo unspecified) | 3% |
| O=C1Nc2cccnc2Sc2ccccc21 | ? |
| COc1ccc(-c2noc(CCC(=O)Nc3cc(Cl)c(OC)cc3OC)n2)cc1 | 2% |
| O=C1C2CCCN2C(c2ccccc2)N1c1ccc(Cl)cc1 (stereo unspecified) | -2% |

Next results follow:
| canonical_smiles | HSD17B inhib |
| --- | --- |
| N#CCCSCc1ccc(C(=O)O)o1 | 2% |
| COc1ccc(Cl)cc1S(=O)(=O)N1CCN(C)CC1 | -4% |
| Cc1csc(SCC(=O)N2CCCC2)n1 | 0% |
| NC(=O)CC(O)c1cccc(Cl)c1 (stereo unspecified) | 13% |
| O=C(NCc1ccccn1)c1cc2ccccn2n1 | ? |
| CC(C)c1nc(N2CCCC2)c(C#N)c2c1CCCC2 | 32µM* |
| CC1=C(C(=O)OC(C)C)C(c2cccs2)C2=C(CCCC2=O)N1 (stereo unspecified) | ? |
| Cc1nc2nc[nH]n2c(=O)c1NC(=O)c1c(-c2ccccc2Cl)noc1C | 5% |
| COc1ccc(S(=O)(=O)N2CCCN(CC(=O)Nc3cc(NC(C)=O)ccc3OC)CC2)cc1 | -9% |
| Cc1ccc2c(CN3CCN(Cc4ccc5c(c4)OCO5)CC3)cc(=O)oc2c1C | 9% |
| Cc1cc(C)c2oc(=O)cc(CN3CCN(Cc4ccc5c(c4)OCO5)CC3)c2c1 | 4% |
| COc1ccc(-c2nn3c(-c4ccncc4)nnc3s2)cc1OC | 9% |
| CCOC(=O)CSc1nnc(CNC(=O)c2cccs2)n1-c1ccccc1 | 2% |
| CN1/C(=C\C(=O)Nc2cccnc2)c2ccccc2CC1(C)C | -1% |
